PINK1 expr mod – changes PINK1 expression; PINK1 immunofluorescence, high-content cytometry, 24 h; Potency, µM (top dose mostly 76.6 µM), for the others: at the top dose activation (PINK1 increase), hits mostly activators; hit rate 0.2% among 410,000; active = well fitted activation curve with a large enough effect; inconclusive = small, poorly fitted or top-dose-only effect; inactive = flat fitted curve, though single readings scatter; cell line not stated here;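 also: potency is read from the fitted curve at half-maximal effect; % of control where 0% means no effect; nearly all actives have a fitted effect of over 65% in size; a mitochondrial uncoupler was the plate control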
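Fluorescence from anti-PINK1 antibody, together with nuclear and cell stains, was scanned on a laser-scanning cytometer. Before staining, stable-line cells were incubated 24 hours with compounds at 5 concentrations; primary antibody 12 h at 10 degrees C.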
Six1-Eya2 blk – inhibitors of human Six1/Eya2 interaction. hit rate 0.56% among 360,000. Q15475+O00167. activity change, % (test concentration not listed). AlphaScreen GST-Six1/His-Eya2 binding, biochemical; active compounds read low; control for the full effect not named in the record. AID 651725; in the data active = activity change below about -65%; inconclusive = about -30% to -65%; inactive = above about -30%; also: % is scaled to controls: 0 for no effect and ±100 for the full control effect
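GST-Six1 + His-Eya2 (5X stock: 250/500 nM); Tris pH 8.0, 300 mM NaCl, 0.05% BSA, 0.02% Tween 20; GSH donor/Ni acceptor beads; 1 h 37 °C dark; AlphaScreen readout.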
TRPML1 ag – agonists of human TRPML1 channel | Q9GZU1 | TRPML1-expressing cells, Ca2+ dye fluorescence, FDSS; host cell line not named in the record; reference of the full effect not given here | activation, % (test concentration not listed) | hit rate 0.12% among 410,000; in the data active = activation above about 50%; inconclusive = about 30% to 50%; inactive = below about 30%; also: 0% is about no effect; the text of the record puts the active cut at 80%
Target sequence (Q9GZU1 whole entry, looked up): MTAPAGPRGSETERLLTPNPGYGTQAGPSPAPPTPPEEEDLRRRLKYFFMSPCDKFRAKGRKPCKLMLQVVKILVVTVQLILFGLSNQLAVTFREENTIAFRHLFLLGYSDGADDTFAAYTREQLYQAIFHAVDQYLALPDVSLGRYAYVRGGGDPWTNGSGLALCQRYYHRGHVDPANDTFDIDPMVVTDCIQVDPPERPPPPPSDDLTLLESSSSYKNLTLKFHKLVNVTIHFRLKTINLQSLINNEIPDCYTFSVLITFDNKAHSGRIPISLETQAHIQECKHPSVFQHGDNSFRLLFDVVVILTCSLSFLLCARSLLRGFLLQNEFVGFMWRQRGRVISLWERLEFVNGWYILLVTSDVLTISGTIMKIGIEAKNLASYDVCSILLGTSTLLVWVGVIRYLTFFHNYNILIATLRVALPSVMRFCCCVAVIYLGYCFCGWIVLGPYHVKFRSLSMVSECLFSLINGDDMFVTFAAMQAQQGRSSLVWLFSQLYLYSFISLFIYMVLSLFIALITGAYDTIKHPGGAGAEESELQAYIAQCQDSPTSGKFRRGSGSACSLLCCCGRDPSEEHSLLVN
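Tetracycline-induced TRPML1-DL cells are seeded and incubated overnight before loading with a no-wash Ca2+ dye and quencher. Agonist activity is taken from the 110 s fluorescence read following compound pin-transfer on an FDSS, before EC80 54-4 challenge.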
D2 ag – human D2 receptor agonism in beta-arrestin assay; P14416; DiscoveRx PathHunter D2 beta-arrestin, luminescence, 90 min; 100% = 57 uM dopamine signal; activation, % (concentration not given with the values); hit rate 0.084% among 360,000; AID 624465; in the data active = activation above about 40%; inconclusive = about 15% to 40%; inactive = below about 15%; also: compound concentration not given in the record; the text of the record calls up to 30% inactive
Target sequence (P14416 whole entry, looked up): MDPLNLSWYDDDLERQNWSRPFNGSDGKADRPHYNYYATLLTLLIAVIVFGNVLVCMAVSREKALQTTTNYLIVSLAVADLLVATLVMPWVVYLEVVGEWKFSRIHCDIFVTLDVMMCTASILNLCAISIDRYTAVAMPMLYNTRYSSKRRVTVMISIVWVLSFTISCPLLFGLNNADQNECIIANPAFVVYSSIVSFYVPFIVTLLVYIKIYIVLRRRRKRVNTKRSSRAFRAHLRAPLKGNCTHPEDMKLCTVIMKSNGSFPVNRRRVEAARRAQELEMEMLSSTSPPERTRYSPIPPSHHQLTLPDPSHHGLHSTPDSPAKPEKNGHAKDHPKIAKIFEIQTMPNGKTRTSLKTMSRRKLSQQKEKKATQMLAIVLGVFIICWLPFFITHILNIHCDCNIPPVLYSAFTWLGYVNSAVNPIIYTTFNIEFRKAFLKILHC
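DiscoveRx PathHunter D2 beta-arrestin cells (2,100/well) attached overnight, then compound-stimulated 90 min at 37 C in HBSS/10 mM HEPES/0.1% Tween-20 buffer; beta-galactosidase complementation read by luminescence after 1 h at ambient temperature. Dopamine 57 uM final (EC100) as control.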
CtBP-E1A blk – CtBP/E1A binding inhibition | AlphaScreen GST-E1A/His-CtBP binding, 1536-well; active compounds read low; control for the full effect not named in the record | activity change, % (no concentration beside the values) | hit rate 0.49% among 340,000 | AID 651724; in the data active means activity change below about -65%; inconclusive means about -30% to -65%; inactive means above about -30%; also: % is scaled to controls: 0 for no effect and ±100 for the full control effect
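In 5 uL wells, 23 nL compound meets equimolar GST-E1A and His-CtBP (5X stock 125 nM each) for 2 h, 37 °C. Beads (5X, 50 ug/mL) then 1 h, 37 °C, dark.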
TRPML1 inh – blocks the human TRPML1 channel | Q9GZU1 | TRPML1-inducible cells, Ca2+ dye fluorescence, FDSS; active compounds read low; inhibition of EC80 agonist-evoked calcium signal | activity change, negative = inhibition, % (concentration not given with the values) | hit rate 0.02% among 390,000 | AID 624415; in the data active means activity change below about -50%; inconclusive means about -30% to -50%; inactive means above about -30%;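 also: stimulus is agonist 54-4 at its EC80 concentration; % is scaled to controls: 0 for no effect and ±100 for the full control effect; the text of the record puts the active cut at -80%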
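Calcium fluorescence in TRPML1-DL cells induced overnight with Tet: a 110 s read after compound pin addition, then a 110 s antagonist read after challenge with 54-4 at 4 uM final (EC80).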
Active calls of the source: *; ? = inconclusive; nt = no result given; & = joins results of further samples; [ ] = remark or other dose.

SMILES	PINK1 expr mod	Six1-Eya2 blk	TRPML1 ag	D2 ag	CtBP-E1A blk	TRPML1 inh
CC(NC(=O)CCc1nnc(CCCc2ccccc2)o1)c1ccccc1 (centres undefined)	-0.2%	13	-0.5	-4.8	8	-14
Cc1ccsc1/C=N/n1c(C2CCCCC2)n[nH]c1=S	7.9%	4	1.2	-4.0	-1	11
CNC(=O)CSc1nnc(NC(=O)Nc2ccccc2)s1	0.3%	nt	-0.6	nt	nt	-6
COc1ccc(OCCn2c(C)nc3cc(C)c(C)cc32)cc1	0.5%	nt	1.4	nt	nt	-1
CC(=O)Nc1ccc(NC(=O)C(C)N(C)CC(=O)Nc2ccccc2Br)cc1 (centres undefined)	-0.1%	-3	-0.9	3.4	-7	-8
CCOC(=O)CNC(=O)CSc1ncnc2c1cnn2-c1ccc(Cl)cc1	3.4%	-5	0.1	-3.6	-1	-6
O=C(CSC(=S)N1CCOCC1)c1cc2ccccc2oc1=O	-0.6%	-2	0.7	2.1	-6	8
O=C(CC1CCCCC1)OCn1nnc2ccccc2c1=O	0.6%	6	5.1	-0.9	-2	-12
COc1cccc(C2C(C#N)=C(N)Oc3c2oc(CO)cc3=O)c1 (centres undefined)	-0.2%	-7	1.0	-5.7	0	10
CCN(CC)CCCNC(=O)c1cc2c(=O)[nH]c3ccc(C)cc3c2s1	3.1%	-7	0.0	-4.6	-14	12
O=C(NC1CCCC1)c1ccc(CSc2nc3ccncc3n2Cc2cccc(F)c2)cc1	-0.7%	nt	1.0	nt	nt	4
CC1CCN(C(=O)c2ncn3c2c(=O)[nH]c2ccc(Br)cc23)CC1	-0.3%	1	nt	-2.8	-1	nt
CCOc1ccc(/C=N/NC(=O)c2c(C)n(C)c3ccc(OC)cc23)cc1	?	-11	0.0	2.2	-1	29
Cc1cc(C(=O)COC(=O)c2ccc[nH]c2=O)c(C)n1-c1ccc(F)cc1	2.3%	0	0.5	2.4	2	-5
O=C(OCc1cn(-c2ccc(Cl)c(Cl)c2)nn1)c1ccccc1	2.0%	-1	0.8	-2.0	4	16
Cc1cccc(C)c1OCc1cc(C(=O)N2CCCCCCC2)no1	-0.4%	24	2.7	-3.9	11	15
O=C(CCc1ccc(O)c(O)c1)N/N=C/c1cc2c(cc1[N+](=O)[O-])OCO2	1.3%	-9	0.2	?	-7	3
CC1(C(=O)NS(=O)(=O)c2ccc(Cl)cc2)CCN1C(=O)CCc1cccs1 (centres undefined)	0.8%	1	-0.8	-3.6	7	nt
CCc1cc(C(=O)NCC(C)(C)N2CCOCC2)sc1C	-0.9%	4	0.6	-3.9	4	1
CCN(CCCNC(=O)c1nn(-c2ccc(OC)cc2)c(=O)c2c1c1ccccc1n2C)c1cccc(C)c1	3.1%	nt	2.8	nt	nt	-7
Cc1cc(C)c(NC(=O)CCCSc2nnc(N)s2)c(C)c1	8.0%	-5	1.0	-4.3	nt	-1
O=C(N/N=C/c1cccnc1)c1ccc([N+](=O)[O-])cc1	-0.8%	-2	1.2	-2.9	-2	-9
S=c1[nH]nc(-c2ccc(Cl)cc2)n1CCCN1CCOCC1	-2.5%	1	2.5	-5.5	nt	-8
COc1ccc(C)cc1NC(=O)CN1CCN(S(=O)(=O)c2ccc(C(C)C)cc2)CC1	-1.5%	-1	0.6	-3.9	-3	-8
Cc1cccc(-n2c(SCC(=O)N3CCCC3)nc3n[nH]c(C)c3c2=N)c1	-5.7%[38.3 µM]	-16	-0.4	3.4	-16	1
C#CCOCCOCCOCCNc1nc(N2CCN(C(=O)[C@H](C)n3cc(CCCN=C(N)N)nn3)CC2)nc(N2CCN(C(=O)[C@H](C)n3cc(CCCN=C(N)N)nn3)CC2)n1	-0.6%	-3	-0.6	-4.4	-5	0
Cc1cccc(-c2noc(CNC(=O)Nc3ccc(F)cc3)n2)c1	-0.7%	8	4.1	-1.4	-1	50
Cc1ccc(C(=O)N(c2ccc(C)cc2)S(=O)(=O)c2ccc(Cl)cc2)cc1	5.1%	nt	0.8	nt	nt	18
O=C1NC2(CCCC2)C(=O)N1Cc1cc(=O)n2ccsc2n1	-2.3%	0	0.4	0.3	1	-8
COc1ccc(NC(=O)CSc2nccn2Cc2ccc(F)cc2)c(OC)c1	-1.3%	-15	2.1	-3.1	-17	5
Cc1c(C(=O)OC/C(O)=C(\C#N)c2nc3ccccc3[nH]2)oc2ccccc12	1.9%	3	-0.7	-2.6	0	-15
COC(c1ccccc1)c1nnc(CCC(=O)N(C)Cc2cccc(-n3cccn3)c2)o1 (centres undefined)	2.3%	3	nt	-3.4	-5	nt
COc1ccc(Nc2nc(C)nc3c2oc2ccccc23)c(OC)c1	3.1%	8	-0.1	2.3	8	-3
COc1ccc(C(=O)N/C(=C/c2cccnc2)C(=O)N2CCN(C)CC2)cc1OC	-1.0%	6	-0.2	2.1	-8	29
CN1CCOc2cc(S(=O)(=O)NCc3ccc(S(N)(=O)=O)cc3)ccc21	-0.3%	-5	0.0	-0.5	4	-12
CCOC(=O)N1CCN(C(=O)c2ccccc2NS(=O)(=O)c2ccc(C)cc2)CC1	-1.6%	6	-0.3	0.4	-3	11
Cc1cccc(C(=O)Nc2ccc3oc(-c4ccncc4)nc3c2)c1	5.1%	nt	-0.8	nt	nt	2
N#Cc1cc(Oc2cccnc2)c(Oc2cccnc2)cc1C#N	-0.2%	2	0.1	4.0	3	-6
COc1ccc(CN2C(=O)c3ccccc3C2C(=O)NC2CCCCCC2)c(OC)c1 (centres undefined)	0.0%&2.0%	-21	4.5	-4.8	-22	24
COc1ccccc1NC(=O)Nc1nc(C(N)Cc2ccccc2)cs1 (centres undefined)	-0.7%	-11	-0.2	7.1	-10	-18
CC(C)c1ccc(N(CC(=O)NC2CCCCC2)C(=O)CNC(=O)c2ccco2)cc1	2.9%	-14	-1.2	-3.6	0	30
CCN(CC)CCCN(Cc1cc2cc(OC)ccc2[nH]c1=O)C(=O)Nc1ccc(F)cc1	-0.8%	5	-0.6	-3.6	-4	17
Cc1noc(C)c1C(=O)Nc1ccc(F)cc1	1.3%	10	1.4	-4.1	-20	-19
O=c1c2ccccc2ncn1-c1cccc([N+](=O)[O-])c1	12%	0	1.1	-1.3	4	-7
CN1CCCCc2c1nc1ccccc1c2N (tested in a mixture with another compound)	6.3%[38.3 µM]	-6	-0.7	-3.4	-5	-1
COc1ccc(OCC(=O)NC(=S)Nc2ccc(N3CCOCC3)c(Cl)c2)cc1	-0.4%	-12	2.3	-3.0	-6	-2
CC(=O)NC(c1cccc(F)c1)c1nc(-c2cc3ccccc3o2)cs1 (centres undefined)	3.4%	1	-0.3	1.0	-4	nt
O=C(CSc1nnc(-c2cccnc2)n1-c1ccccc1)N1CCN(c2ccc(F)cc2)CC1	-1.5%	-2	3.3	-2.7	-10	-20
COc1ccc2oc(=O)c(C(=O)NCCc3c(C)[nH]c4c(C)cccc34)cc2c1	3.1%	nt	2.8	nt	nt	-17
CCC1NC(=O)c2ccccc2N1c1cccc(Cl)c1 (centres undefined)	0.1%	-1	3.8	-5.5	-17	-8
O=C(Nc1cccc(-c2nnc(-c3ccccc3)o2)c1)C1CCCO1 (centres undefined)	-1.9%[38.3 µM]	-7	0.5	1.2	12	14
Cc1ccccc1-c1nnc(C2CCN(S(=O)(=O)c3ccc(Cl)cc3)CC2)o1	1.8%	nt	1.1	nt	nt	47
CC1(C)CC(=O)C2=C(C1)N(c1ccc(F)cc1)C(=O)NC2(C(F)(F)F)C(F)(F)F	1.0%[38.3 µM]	3	-0.5	-1.4	5	-13
COc1cc2c(=O)n(Cc3ccccc3)c(=O)n(CC(=O)NCCc3ccccc3)c2cc1OC	8.2%	14	1.1	0.6	5	10
O=C1CCCN1CC(O)CS(=O)(=O)Cc1ccc(Cl)cc1 (centres undefined)	0.9%	7	1.9	-1.1	6	1
CCOC(=O)Cc1csc(NC(=O)CSc2nnc(-c3ccc(OC)cc3)n2C)n1	64%[38.3 µM]	-3	-0.1	-2.0	0	6
O=C(NCc1ccc(F)cc1)C1CCN(S(=O)(=O)c2ccc(N3CCCC3=O)cc2)CC1	-0.6%	-2	-0.4	1.0	4	24
N#CCC(=O)N1CCN(Cc2ccc3c(c2)OCO3)CC1	2.6%	-3	0.3	-4.4	nt	5
CC(C)(C)C1CCc2nc(NC(=O)Cc3ccc(Cl)cc3)sc2C1 (centres undefined)	8.6%	nt	1.4	nt	nt	36
COC(=O)CN1CCN(C(=O)c2ccco2)CC1	-0.2%	1	0.0	0.7	11	1

Single records, from the list above.
`COC(=O)CN1CCN(C(=O)c2ccco2)CC1` is listed as PINK1 expr mod = -0.2%; Six1-Eya2 blk = 1; TRPML1 ag = 0.0; D2 ag = 0.7; CtBP-E1A blk = 11; TRPML1 inh = 1
`Cc1ccccc1-c1nnc(C2CCN(S(=O)(=O)c3ccc(Cl)cc3)CC2)o1` is listed as PINK1 expr mod = 1.8%; Six1-Eya2 blk = nt; TRPML1 ag = 1.1; D2 ag = nt; CtBP-E1A blk = nt; TRPML1 inh = 47

Carrying on.
SMILES	PINK1 expr mod	Six1-Eya2 blk	TRPML1 ag	D2 ag	CtBP-E1A blk	TRPML1 inh
CCCCn1c(N)c(N(C(=O)CSc2nnc(C)n2-c2ccccc2)C2CCCC2)c(=O)[nH]c1=O	-0.2%	3	0.3	-11	-6	-7
CCCN(CCC)S(=O)(=O)c1ccc(NC(=O)C2CCCO2)cc1 (centres undefined)	-0.9%	-4	0.2	-1.5	-2	8
CCOc1ccc(S(=O)(=O)n2nc(C)c(S(=O)(=O)N3CCCCC3)c2C)cc1	1.8%	nt	0.8	nt	nt	-9
COc1ccccc1C(=O)Nc1nnc(S(=O)(=O)N2CCCCC2)s1	0.6%&-0.8%	0	-0.2&-0.7	-1.4	-3	3&28
C/C(=N\N1CCN(c2ccccc2)CC1)c1ccncc1	-0.7%	6	0.9	-3.6	8	27
CCOc1ccccc1-n1cnc(C#N)c1N	-0.5%	-3	0.0	-4.8	1	-14
CCOC(=O)c1c(S(=O)(=O)N2CCC(C(=O)N3CCN(c4cc(C)ccc4C)CC3)CC2)c(C)n(C)c1C	0.0%	nt	1.2	nt	nt	45
Cc1cc(C)c(NC(=O)C2CCCN2CCC(C)C)c(C)c1 (centres undefined)	0.3%	0	0.4	-1.9	2	0
CN(C)C(=O)c1cccc(-c2cnc3c(NC=O)cc(-c4cc(F)c(F)c(F)c4)cn23)c1	-1.0%	-6	-0.5	-5.5	3	nt
CCc1ccc(C(c2ccccc2)c2c[nH]c3ccc(C)cc23)s1 (centres undefined)	1.8%	nt	-0.4	nt	nt	12
CCOc1ccc(CCNC(=O)c2sc3nc4n(c(=O)c3c2C)CCCC4)cc1	2.1%	nt	-0.6	nt	nt	8
O=C1CCCN1CC(O)CS(=O)(=O)Cc1ccc(Cl)cc1Cl (centres undefined)	1.6%	2	3.8	-2.0	nt	5
CCCC(=O)NC(NC1CCS(=O)(=O)C1)C(Cl)(Cl)Cl (centres undefined)	-0.8%	2	0.6	3.9	nt	-8
